# VACV mCherry inh: qHTS for Stage-Specific Inhibitors of Vaccinia Orthopoxvirus: mCherry Reporter Primary qHTS | Potency, µM (highest dose often 36.5 µM), without a hit: at the highest dose activity change, negative = inhibition, usual class: inhibitors | Vaccinia virus mCherry reporter infection, fluorescence; about a quarter of the inactives have no number | 310,000 compounds, 0.63% hits; active = well fitted inhibition curve with a large enough effect; inconclusive = small, poorly fitted or top-dose-only effect; inactive = no such curve, though single readings can be large or run the other way; tested in A549 cells; also: nearly all actives have a fitted effect of over 35% in size; inactives centre near -10
# Vaccinia Venus: qHTS for Stage-Specific Inhibitors of Vaccinia Orthopoxvirus: Venus Reporter Primary qHTS; Vaccinia virus Venus reporter expression, fluorescence; Potency, µM (top dose mostly 36.5 µM), inactives show at the top dose activity change, negative = inhibition, hits mostly inhibitors; 330,000 compounds, 0.46% hits; AID 720580, 2013; active means well fitted inhibition curve with a large enough effect; inconclusive means small, poorly fitted or top-dose-only effect; inactive means no such curve, though single readings can be large or run the other way; tested in A549 cells; also: nearly all actives have a fitted effect of over 30% in size; inactives centre near -10
# * marks the source's active call; other numbers are inactive results; i = inactive; ? = inconclusive; . = not tested or not shown; & = joins results of further samples; [ ] = remark or other dose. % is scaled to controls: 0 for no effect and ±100 for the full control effect; potency is read from the fitted curve at half-maximal effect.
SMILES,VACV mCherry inh,Vaccinia Venus
O=C(NC1CCCCC1)c1cc([N+](=O)[O-])[nH]n1,-4%,-20%
CCCCCCn1c(=O)n2n(c1=O)C[C@]1(OC(=O)NC3CCCC3)CN(S(=O)(=O)c3ccc(C)cc3)C[C@]1(O)C2,-1%,?
Cc1ccc(NC(=O)Cn2cnc3c(OCc4ccccc4)ncnc32)cc1C,-14%,-16%
Cc1noc(C)c1COc1cccc(C(=O)NCCc2c[nH]c3ccccc23)c1,?,-18%
C(#CCN1CCCC1)CC(c1ccccc1)c1ccccc1,-10%,-12%
Cc1ccc(Cn2c(=O)c3c(nc4n3CCN4c3cc(C)cc(C)c3)n(C)c2=O)cc1,-9%,-3%
COc1cccc(NC(=O)COc2ncnc3sc(C)c(C)c23)c1,.,-8%
COc1ccccc1NS(=O)(=O)c1cc(C(=O)NCc2cccnc2)ccc1C,i,-10%
COc1cc(C(=O)NCc2ccc(OCCN(C)C)cc2)cc(OC)c1OC,-13%,-13%&-14%
COCCCNC(=S)NC1CC2CCC(C1)N2Cc1ccccc1 (centres undefined),-12%,-8%
Cc1cc(=O)oc2cc(OC(C)C(=O)NCC3CCC(C(=O)O)CC3)c(Cl)cc12 (centres undefined),8%,11%
COc1cccc(S(=O)(=O)NCc2ccc(C(=O)N3CCN(Cc4ccccc4)CC3)cc2)c1,-14%,7%
C/C(=N\NC(=O)C(=O)Nc1ccc(C)cc1)c1ccncc1,i,-15%
COc1ccc(C(=O)COC(=O)CCCC(=O)Nc2cc(C(F)(F)F)ccc2Cl)cc1,-14%,-7%
CCN(CC(=O)Nc1ccc2c(c1)OC(F)(F)O2)Cc1nc2ccccc2c(=O)[nH]1,.,-14%
CCC1CN1P(=O)(c1ccccc1)N1CC1CC (centres undefined),-8%,-4%
COc1ccc(OC)c(CN2C(=O)CSCC2(C)C(=O)NCc2ccccc2)c1 (centres undefined),-9%,-4%
COc1cc(/C=N/NC(=O)C(=O)NCc2cccnc2)ccc1O,-10%,-4%
Cc1ccc(OCCCSc2nc(-c3ccc(C(C)(C)C)cc3)nc3cc(=O)[nH]n23)cc1C,-19%,-17%
COc1ccc(-c2ccc(SCC(=O)NC3CCCC3)nn2)cc1,i,-26%
CCOc1ccc(N(CC(=O)NC(C)(C)C)C(=O)c2ccco2)cc1,-14%,-2%
COCCCN(C(=O)CSCC(=O)Nc1cccc(C)c1)c1c(N)n(Cc2ccccc2)c(=O)[nH]c1=O,-15%,-2%
CC(=O)N1CCN(CC(=O)Nc2cc([N+](=O)[O-])ccc2Cl)CC1,-2%,-6%
O=C(Cc1ccc(F)cc1)OCC(=O)c1cc2ccccc2o1,-21%[1.46 µM],-16%
O=C(CN(C(=O)CNC(=O)c1cccs1)c1ccccc1F)NC1CCCCC1,i,-20%
O=C(NNC(=O)c1ccccc1[N+](=O)[O-])c1ccco1,-2%,-2%
CC1CC(C)CN(CC(O)COc2ccc3c(c2)CCC3)C1 (centres undefined),i,-13%
CC(C(=O)Nc1ccc(N2CCOCC2)cc1)N1C(=O)c2ccccc2C1=O (centres undefined),i,0%
C[C@H](CO)N1C[C@H](C)[C@H](CN(C)C)Oc2ccc(NS(=O)(=O)c3ccc(F)cc3)cc2CC1=O,i,-17%
CC(C(=O)Nc1cccc(S(=O)(=O)N2CCOCC2)c1)N1CCN(C/C=C/c2ccccc2)CC1 (centres undefined),-18%,-12%
N=C1C=CC=C2C1=NC1(CCCCC1)N2O,i,-4%
O=C(NCCc1ccc(Cl)cc1)C1CCCN(S(=O)(=O)c2cnc[nH]2)C1 (centres undefined),5%,-3%
COc1ccc(Br)cc1C(=O)Nc1ccc(N2CCCC2)cc1,-19%,-11%
Nc1c(-c2nc(-c3ccccc3Cl)no2)nnn1-c1ccccc1F,0%,-10%
CN1CCN(c2oc(COc3ccc(-c4ccccc4)cc3)nc2C#N)CC1,-7%,-17%
CC(C)C[C@@H]1Cc2[nH][nH]c(=O)c2[C@H](C(C)C)O1,-5%,-10%
O=C(N/N=C1\CC(c2ccccc2)Oc2ccccc21)c1cccnc1 (centres undefined),-4%,-21%
OC(C[n+]1c(Cl)ccc2ccccc21)c1ccccc1 (centres undefined),-9%,-8%
CN(C)C(=O)Nc1ccccc1,i,-4%
CCOC(=O)N1CCN(S(=O)(=O)c2ccc3c(c2)OCC(=O)N3)CC1,-16%,-11%
C=CCONC(=O)Cc1ccccc1,-9%,-9%
Cc1ccc(C(=O)O[C@H](C(=O)O)[C@H](OC(=O)c2ccc(C)cc2)C(=O)O)cc1,i,-6%
CCOC(=O)C1=C(N)N(c2ccccc2)C(=O)C1,-11%,3%
Cc1ccc(OCC(=O)OCc2cc(=O)n3nc(-c4cccs4)sc3n2)cc1C,-14%,-1%
O=C(CSc1ccccc1C(=O)O)NCc1ccc(Cl)cc1,-14%,-11%
COc1ccc(CNC(=O)C2CC(O)CN2C(=O)Nc2ccccc2)cc1 (centres undefined),i,-12%
NC1=NC(c2cccc(O)c2)n2c(nc3ccccc32)N1 (centres undefined),i,-13%
CCOc1ccc(C2=C(C(C)=O)Sc3nnc(C)n3N2C(C)=O)cc1,?,?
O=C(CCNC(=O)C1CCN(S(=O)(=O)c2ccc(F)cc2)CC1)NCc1ccccn1,-9%,-6%
CN1C(=O)c2ccccc2Sc2ccc(NC(=O)COc3ccc(Cl)cc3)cc21,-2%,-25%
CCOc1ccc(C(=O)NCCc2ccc3c(c2)OCCO3)cc1,-11%,-9%
O=C(Nc1cccc(C(F)(F)F)c1)C1CCN(S(=O)(=O)c2cnc[nH]2)CC1,-10%,-16%
CCCC(=O)NC(NC(=S)Nc1ccc(N=Nc2ccccc2)cc1)C(Cl)(Cl)Cl (centres undefined),-16%,?
CCOc1ccc(/C=C/C(=O)NCc2ccccc2)cc1,-18%,-15%
COc1cc(C2c3c(oc4ccccc4c3=O)C(=O)N2Cc2ccco2)ccc1O (centres undefined),-24%,-17%
CCCCCCn1c(=O)c(C(=O)Nc2c(C)n(C)n(-c3ccccc3)c2=O)c(O)c2ccccc21,-10%,4%
COc1ccc(-c2nn(C)c(=O)c3ccccc23)cc1NC(=O)COc1ccccc1,?,?
COC(=O)CN1C(C(=O)c2ccccc2)=C(OC(=O)c2ccc(C)cc2)c2ccccc2S1(=O)=O,-15%,-20%
O=C(CCCN=C1NS(=O)(=O)c2ccccc21)OCC(=O)c1ccc(Br)cc1,-12%,-13%
O=C(c1ccc2ncsc2c1)N1CCCC(C(F)(F)F)C1 (centres undefined),i,-6%

# Reformatted: 2 of the compounds above
# Results follow in this order: VACV mCherry inh	Vaccinia Venus
CCOc1ccc(/C=C/C(=O)NCc2ccccc2)cc1
→ -18%	-15%
Cc1ccc(OCC(=O)OCc2cc(=O)n3nc(-c4cccs4)sc3n2)cc1C
→ -14%	-1%

# The list goes on.
SMILES,VACV mCherry inh,Vaccinia Venus
CCOc1cccc(N(C(=O)C2COc3ccccc3O2)C(C(=O)NC2CCCCC2)c2ccc(O)cc2)c1 (centres undefined),-9%,-16%
CN(Cc1nc2ccccc2s1)C(=O)c1ccc(F)cc1,-11%,10%
Cc1ccc2c(c1)c1ncnc(N3CCc4ccccc4C3)c1n2C,.,-18%
COC(=O)c1ccc(Cc2ccc(C(=O)OC)o2)o1,-12%,-6%
CCn1c(=O)cc(OCC(=O)N(C)c2ccccc2F)c2ccccc21,-7%,-4%
Cc1ccc([N+](=O)[O-])cc1S(=O)(=O)Nc1ccc(-c2ccc(N3CCCC3)nn2)cc1,i,-17%
Cc1ccc(C)c(S(=O)(=O)NCc2ccc3c(c2)OCO3)c1,-3%,-17%
O=C(CCCc1c[nH]c2ccccc12)Nc1ccc2ccccc2c1,?,-33%
CC(C)C(NS(=O)(=O)c1ccc2c(c1)oc(=O)n2C)C(=O)NCCc1ccccc1 (centres undefined),-7%,0%
CN(CC(=O)Nc1cccc(F)c1)C(=O)c1ccc(N2CCCC2)c([N+](=O)[O-])c1,i,-10%
O=C(O)COc1ccc(/C=N/NC(=O)c2cccc3ccccc23)cc1,-12%,-8%
O=C(CN1C(=O)C2C3C=CC(C3)C2C1=O)Nc1nc2ccccc2[nH]1 (centres undefined),.,-6%
CCCn1c(N)c(C(=O)CSc2nnc(-c3cccnc3)n2-c2ccc(C)cc2C)c(=O)[nH]c1=O,-18%,-14%
CCCCCCCC1CC(=O)C=C(C)C1C(=O)OCC (centres undefined),i,-6%
CCC1CN(C(=O)NCc2ccc(C)cc2)c2ccccc2O1 (centres undefined),8%,-2%
COc1ccc(S(=O)(=O)N(CC(=O)NCc2ccco2)c2ccccc2OC)cc1,i,12%
O=C(CCCC(=O)N(c1cccc(F)c1)C(C(=O)NC1CCCC1)c1ccc(O)cc1)Nc1ccccn1 (centres undefined),-21%,-7%
CCOC(=O)c1sc(N)c(C#N)c1CSc1nc2ccc(C)cc2[nH]1,.,-20%
CC1=Nn2c(nc(-c3ccccc3)c2-c2ccccc2)N(CC(N)=O)C(=O)C1,.,-27%
O=C(CCC(=O)N(CC(=O)NC1CCCCC1)c1ccc(F)cc1)Nc1nccs1,-4%,0%

# Two records drawn at random from the list so far:
SMILES,VACV mCherry inh,Vaccinia Venus
CCCCCCCC1CC(=O)C=C(C)C1C(=O)OCC (centres undefined),i,-6%
O=C(CCC(=O)N(CC(=O)NC1CCCCC1)c1ccc(F)cc1)Nc1nccs1,-4%,0%

# Next section
SMILES,VACV mCherry inh,Vaccinia Venus
COC(=O)Cn1c(SCc2ccccc2)nc2ccccc21,-14%,-17%
CCSc1nc2c(c(=O)[nH]1)C(c1ccncc1)C(C(=O)OC)=C(C)N2 (centres undefined),-16%,-14%
CC(=O)NC(c1ccccc1)c1nc(-c2ccccc2)cs1 (centres undefined),i,17%
Cc1ccc(C(=O)NCC(=O)OC(C)C(=O)NC2CCCCC2C)cc1C (centres undefined),-17%,0%
COc1ccc(OCC(=O)N(Cc2sccc2C)C2CCS(=O)(=O)C2)cc1 (centres undefined),-15%,-7%&-12%
CCN(CC)CCN(C(=O)c1ccco1)c1nc2cc(C)cc(C)c2s1,-9%,3%
COc1cnc(SC)nc1Nc1ccc(C#N)cc1,-14%,-27%
CCCN(CCC)C(=O)Cc1ccc(F)cc1,-8%,-15%
NS(=O)(=O)c1cc2c(cc1C(F)(F)F)NCNS2(=O)=O,-18%,-13%&-17%
Cc1ccc(NC(=O)CN2C(=O)CCc3cc(S(=O)(=O)N4CCOCC4)ccc32)cc1N(C)C,-9%,0%
Cc1c(CC=C(Cl)Cl)c(=O)[nH]c2c(C)cccc12,?,0%
CC(=O)Nc1cccc(-c2cccc3nccn23)c1,5%,-15%
CCCC(=O)N(Cc1cc(=O)[nH]c2ccccc12)c1ccccc1,i,-18%
COc1ccc2nc(C)cc(N/N=C/c3ccc(F)cc3)c2c1,?,10µM*
O=C(c1ccccc1)N1CCN(C(=O)c2ccc3c(c2)OCO3)CC1,-16%,-13%
CCC1(c2ccccc2)NC(=O)N(CC(=O)N(C)CC(=O)Nc2c(C)cccc2C)C1=O (centres undefined),-13%,-21%
CCCCN(Cc1ccccc1)S(=O)(=O)c1cc(Br)cc2c1N(C(C)=O)C(C)C2 (centres undefined),-30%,-22%
COc1ccc2oc(C(=O)OCC(=O)Nc3cc(S(=O)(=O)N4CCOCC4)ccc3C)c(C)c2c1,i,-11%
CCCCCNC(=O)C(c1ccc(C(F)(F)F)cc1)n1c(=O)c(-c2ccco2)nc2ccccc21 (centres undefined),-1%,-19%
COCC(C)N=C1NN=C(c2cccs2)C(CC(=O)O)S1 (centres undefined),i,-9%
COc1cccc(CN(C)C(=O)CSCC(=O)Nc2ccc(C)cc2)c1OC,i,-10%
CCCC12CN3CC(C)(CN(C1)C3c1c(C)[nH]c(=O)[nH]c1=O)C2=O (centres undefined),-6%,-2%
CC(NC(=O)C(=O)N1CCCCC1)C(c1cccs1)N1CCN(c2ccccc2)CC1 (centres undefined),-2%,-17%

# Exported with two lines to a compound: entries from further up
# Results follow in this order: VACV mCherry inh	Vaccinia Venus
> CCCC(=O)N(Cc1cc(=O)[nH]c2ccccc12)c1ccccc1
 : i	-18%
> COc1ccc2nc(C)cc(N/N=C/c3ccc(F)cc3)c2c1
 : ?	10µM*
> O=C(c1ccccc1)N1CCN(C(=O)c2ccc3c(c2)OCO3)CC1
 : -16%	-13%
> CCC1(c2ccccc2)NC(=O)N(CC(=O)N(C)CC(=O)Nc2c(C)cccc2C)C1=O (centres undefined)
 : -13%	-21%
> CCCCN(Cc1ccccc1)S(=O)(=O)c1cc(Br)cc2c1N(C(C)=O)C(C)C2 (centres undefined)
 : -30%	-22%
> COc1ccc2oc(C(=O)OCC(=O)Nc3cc(S(=O)(=O)N4CCOCC4)ccc3C)c(C)c2c1
 : i	-11%
